VDR inhibitor: inhibitors of human vitamin D receptor. P11473. VDR-SRC2-3 peptide fluorescence polarization, 2 h. Potency, µM, for the others: max response, negative = inhibition, hits mostly inhibitors. hit rate 0.93% among 400,000. AID 504847; active = well fitted inhibition curve with a large enough effect; inconclusive = small, poorly fitted or top-dose-only effect, or another doubt; inactive = no such curve, though single readings can be large or run the other way; note: series mostly up to about 120 µM
Target sequence (P11473 whole entry, looked up): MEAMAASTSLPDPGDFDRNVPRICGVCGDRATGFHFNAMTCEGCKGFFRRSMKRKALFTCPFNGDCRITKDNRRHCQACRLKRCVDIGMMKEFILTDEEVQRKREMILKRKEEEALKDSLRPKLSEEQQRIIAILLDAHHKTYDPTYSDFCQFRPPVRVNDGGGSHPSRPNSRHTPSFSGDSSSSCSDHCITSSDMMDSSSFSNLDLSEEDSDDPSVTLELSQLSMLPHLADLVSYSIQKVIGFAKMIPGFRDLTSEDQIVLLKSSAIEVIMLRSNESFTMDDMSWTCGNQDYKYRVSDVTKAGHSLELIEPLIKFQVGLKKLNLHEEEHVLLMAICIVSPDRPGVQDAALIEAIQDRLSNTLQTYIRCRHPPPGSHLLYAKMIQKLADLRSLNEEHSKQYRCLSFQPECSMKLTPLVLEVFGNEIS
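VDR–SRC2-3 interaction, FP format. Cmpds 23 nl via pintool, brief spin, 2 h ambient incubation.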
An asterisk follows results filed as active; u = inconclusive; & = joins results of further samples. % is set by controls: 0 for no effect and ±100 for the full control effect; potency is the fitted concentration of half-maximal effect. Some of the compounds tested, so the mix of outcomes need not match the whole.

canonical_smiles	VDR inhibitor
Cc1nnc(NC(=O)CSc2nccn2-c2cccc(Cl)c2)s1	-8.5%
O=C(CNC(=O)c1ccco1)OCc1c(F)cccc1Cl	13.7%
O=C(CNc1cc(S(=O)(=O)N2CCOCC2)ccc1N1CCCC1)NCc1ccco1	14.2%
CCOC(=O)c1cc2cc(-c3c(C(=O)OCC)oc4cc(O)cc(O)c4c3=O)ccc2o1	-2.8%
c1ccc(-c2nnc(-c3ccncc3)o2)cc1	-7.3%
CNC(=O)c1c(NC(=O)c2ccco2)sc2c1CCCC2	-3.9%
Cc1ccc(S(=O)(=O)NCC(=O)OCC(=O)NCCc2ccccc2)cc1	2.0%
CCc1ccc(OCC(=O)Nc2ccc(S(=O)(=O)Nc3cc(C)on3)cc2)c(Br)c1	-2.9%
Cn1cc(CN2CCC(n3nccc3NC(=O)CCOc3ccccc3)CC2)cn1	6.8%
CCc1cccc2c3c([nH]c12)C(CC)(CC(=O)O)OCC3 (configuration not stated)	1.8%&-11.4%
CC(C)(C)NC(=O)c1ccc2c(c1)N(CC(=O)N1CCN(c3ccc(F)cc3)CC1)C(=O)C(C)(C)O2	-4.5%
CCCCc1nc2ccccc2c(C(=O)O)c1C	-4.7%
Cc1ccc2nc(NC(=O)c3cccs3)sc2c1	3.4%
CC1CN(C(=S)Nc2cccc([N+](=O)[O-])c2)CC(C)O1 (configuration not stated)	8.5%
Cc1cc(C)c2nc(C)cc(Nc3ccc(C(=O)N4CCOCC4)cc3)c2c1	-16.6%
O=C(Nc1ccc(OCC(=O)N2CCOCC2)cc1)Nc1cccc(Cl)c1	-4.0%
COc1ccc(C(=O)NN2C(=O)C3C(c4ccccc4)C=CC(c4ccccc4)C3C2=O)cc1 (configuration not stated)	1.3%
COc1ccc(NC(=O)c2nc3ccccc3s2)cc1	16.2%
CCCc1cc(C(=O)NCc2cccnc2)no1	2.0%
CCCCNC(=O)c1onc(CSc2ccc(F)c(F)c2)c1C(=O)O	-9.6%
CCN(c1ccccc1)S(=O)(=O)c1ccc(C(=O)N2CC(C)CC(C)C2)cc1 (configuration not stated)	-22.7%
Cc1cccc(CN2CCC(n3nccc3NC(=O)CCCc3ccccc3)CC2)n1	5.0%
CCOC(=O)c1cc(-c2cc3ccccc3o2)n[nH]1	u
CC1(c2ccccc2)NC(=O)N(CC(=O)Nc2nnc(C3CC3)s2)C1=O (configuration not stated)	-5.1%
O=C(Nc1cccc2cccnc12)C(F)(F)F	3.9%
N#C/C(=C/c1ccc(N2CCOCC2)o1)c1nc2ccccc2[nH]1	-22.6%
CC(=O)c1cccc(NC(=O)N2CCCC2C(=O)Nc2cccc(C)c2)c1 (configuration not stated)	-1.2%
Cc1nc2ccc(S(=O)(=O)NCC(=O)NC(C)c3ccccc3)cc2s1 (configuration not stated)	-7.4%
O=C(OCc1cc2ccccc2[nH]c1=O)c1cccs1	0.7%
O=S(=O)(Nc1nc2ccccc2nc1N1CCN(c2ccccc2F)CC1)c1ccc(Cl)cc1	26.4%
O=C(NN1C(=O)C2CCCCC2C1=O)c1ccco1 (configuration not stated)	5.0%
Cc1ccccc1CNC(=O)C1CCN(c2nnc(C)c3c(C)n(-c4ccccc4)nc23)CC1	20.6%
Cc1ccc(C)c(N2CCN(C(=O)c3cc4c(=O)n(Cc5ccco5)ccc4nc3C)CC2)c1	-2.6%
Cc1ccnc(NC(=O)C2CCN(S(=O)(=O)c3ccc4ccccc4c3)CC2)c1	-23.0%
CC1CCCC(C)N1C(=O)COC(=O)c1ccc(O)cc1 (configuration not stated)	-5.3%
CCc1cc(=O)oc2c(C)c(OCC(=O)NCCCN3CCOCC3)ccc12	-17.9%
O=C(O)COc1ccccc1/C=N/NC(=O)CSc1nnc(-c2ccc(Cl)cc2)n1C1CCCCC1	-22.6%
N=C1/C(=C\c2coc3ccccc3c2=O)C(=O)N=C2SC(c3ccncc3)=NN12	28.2µM*
CCCc1nn2c(=O)cc(CSCC(=O)Nc3ccccc3OC)nc2s1	-5.4%
CC(=O)Nc1nc2ccccc2n1Cc1ccccc1C	15.4%
COc1cc2c(ccc3cc(OC)c(OC)c(O)c32)cc1O	6.0%
Cc1c(C(=O)N2CCCCC2)nnn1-c1nonc1N	3.2%
CCC12CN3CCN(CC(C3)/C1=N\NC(=O)c1ccc(F)cc1)C2	u
S=C(Nc1ccc(Cl)cc1Cl)Nc1ccccc1Oc1ccccc1	19.9%
O=c1c2cc(N3CCOCC3)ccc2[nH]c(=S)n1CC1CCCO1 (configuration not stated)	6.7%
CCC(C(=O)NCc1ccccc1Cl)n1nc(C)c2sc3ccccc3c2c1=O (configuration not stated)	2.3%
CCOc1ccc(N2CC(NC(=O)c3ccco3)CC2=O)cc1 (configuration not stated)	13.4%
CC(=O)O[C@H]1CSC[C@H]1NC(=O)c1ccccc1	-0.2%
NNC(=O)COc1ccccc1F	-16.5%
O=C(Nc1cccnc1)C12CC3CC(CC(C3)C1)C2	-10.1%

More records
molecule,VDR inhibitor
Cc1ccccc1NC(=O)Cc1nc(COC(=O)c2cc(Cl)ccc2O)cs1,-17.6%
CCCOc1ccc(CN(C(=O)c2nc(SC(C)C)ncc2Cl)C2CCS(=O)(=O)C2)cc1 (configuration not stated),15.1%
S=C(NCc1ccco1)N1CCN(c2ccc(Cl)cc2)CC1,12.0%
O=C(CN1C(=O)c2ccccc2C1=O)OCC(=O)c1ccc(F)cc1,-3.8%
CCc1cccc(NC(=O)Cn2c(=O)n(-c3cccc(Cl)c3)c(=O)c3c2c2cc(C)ccc2n3C)c1,-11.4%
COc1cccc(C(=O)Nc2ccccc2OC(F)(F)F)c1,-3.2%
CCCCc1c(O)nc(SCC(=O)NC(C)(C)C)n(-c2ccccc2C)c1=O,21.7%
CC(=O)c1ccc(NC(=O)NCc2ccc(F)cc2)cc1,7.1%
CCOc1ccc(NCc2cccn2-c2nnc(N3CCC(C(=O)NCC(C)c4ccccc4)CC3)s2)cc1 (configuration not stated),4.3%
COc1ccc(CNC(=O)c2ccc(CNS(=O)(=O)c3ccc(F)cc3)cc2)cc1,17.7%
C=CC(=O)OCCOCCOCCOCCOC(=O)C=C,-5.9%
NC(=O)c1ncn([C@@H]2O[C@H](CNCc3cc(Cl)ccc3OCc3ccc(Cl)cc3)[C@@H](O)[C@H]2O)n1,-1.4%
O=C(O)c1cccnc1SC1CC(=O)N(c2ccc(OC(F)F)cc2)C1=O (configuration not stated),-17.4%
Cc1c(C(=O)N(C)C)sc2c1c(=O)n(-c1ccc(Cl)c(Cl)c1)c(=O)n2Cc1ccc(F)cc1,7.4%
Cc1ccccc1NC(=O)CSc1nnc(COc2ccc(Cl)cc2)o1,3.2%
CC(=O)c1ccc(OCCCC(=O)Nc2ccc(C)c(S(=O)(=O)N3CCCCC3)c2)cc1,7.2%
CCOC(=O)C1=C(c2ccccc2)NC(=O)NC1c1ccsc1 (configuration not stated),8.0%
Cc1ccc(OCC(=O)Nc2ccc3c(c2)nc(CCN2CCC(C)CC2)n3C)cc1,6.3%
CN(C)c1ccc(/C=C/C(=O)c2c(O)c3ccccc3oc2=O)cc1,u
CC1(C(=O)NC2CCCCCCC2)CCC(=O)N1Cc1cccs1 (configuration not stated),-3.3%
Cc1ccc(S(=O)(=O)Nc2cccc(C(=O)NCc3ccc(S(N)(=O)=O)cc3)c2)cc1,13.4%
Cc1c(NC(=O)C(C)Sc2nnc(-c3ccccc3)o2)c(=O)n(-c2ccccc2)n1C (configuration not stated),-3.3%
Cc1cc(SCC(=O)OCC(=O)N2CCN(C(=O)c3ccco3)CC2)c(C)cc1Br,-3.5%
Cc1ccc2c(c1)c1c3n2CCCN(Cc2ccccc2)C3CCC1 (configuration not stated),27.5%

The closing two compounds of the part above come first, to join the parts.
molecule,VDR inhibitor
Cc1cc(SCC(=O)OCC(=O)N2CCN(C(=O)c3ccco3)CC2)c(C)cc1Br,-3.5%
Cc1ccc2c(c1)c1c3n2CCCN(Cc2ccccc2)C3CCC1 (configuration not stated),27.5%
C#CCOCCOCCOCCNc1nc(N2CCN(C(=O)[C@H](CCC(=O)O)n3cc(C(N)CC(C)C)nn3)CC2)nc(N2CCN(C(=O)[C@H](Cc3ccc(O)cc3)n3cc(C(N)CC(C)C)nn3)CC2)n1 (some centres not stated),-3.8%
COc1ccc(C2CC(c3cccs3)=NN2C(=O)CSc2nnc(N)s2)cc1OC (configuration not stated),-8.0%
C=CCn1c(SCC(C)=O)nc2scc(-c3ccco3)c2c1=O,79.4µM*
O=C(O)COc1ccc(NC(=O)C(c2ccccc2)c2ccccc2)cc1,-12.6%
CCOc1cccc(-c2nc3cc(C)ccc3o2)c1,-8.0%
O=C(NC1CCCC1)c1ccc2c(c1)N(Cc1ccc(F)cc1)C(=O)c1ccccc1S2,8.5%
Cc1ccc(Cn2c(=O)c3cccnc3n(Cc3ccc(F)cc3)c2=O)cc1,5.2%
Cc1ccc(CSCc2nc3ccccc3[nH]2)cc1,14.2%
Cc1ccsc1C(=O)N1CCC(N2CCC(C(=O)NCC3CCCO3)CC2)CC1 (configuration not stated),26.1%
CN(C)C(CNC(=O)/C=C/c1cccc(Cl)c1)c1ccccc1 (configuration not stated),u
Cc1noc(C)c1C(=O)N1CCCc2ccccc21,12.8%
O=C(O)c1ccc(NS(=O)(=O)c2cccc(C(=O)Nc3ccc(Br)cc3)c2)cc1,-3.5%

Quoted from the results shown for reference:
molecule,VDR inhibitor
O=C(NC1CCCC1)c1ccc2c(c1)N(Cc1ccc(F)cc1)C(=O)c1ccccc1S2,8.5%
Cc1ccc(Cn2c(=O)c3cccnc3n(Cc3ccc(F)cc3)c2=O)cc1,5.2%
Cc1ccc(CSCc2nc3ccccc3[nH]2)cc1,14.2%
Cc1ccsc1C(=O)N1CCC(N2CCC(C(=O)NCC3CCCO3)CC2)CC1 (configuration not stated),26.1%
CN(C)C(CNC(=O)/C=C/c1cccc(Cl)c1)c1ccccc1 (configuration not stated),u
Cc1noc(C)c1C(=O)N1CCCc2ccccc21,12.8%
O=C(O)c1ccc(NS(=O)(=O)c2cccc(C(=O)Nc3ccc(Br)cc3)c2)cc1,-3.5%

Carrying on.
molecule,VDR inhibitor
COc1ccc(NC(=O)c2nc(SC)ncc2Cl)cc1,-10.9%
O=C(Cc1n[nH]c(=O)[nH]c1=O)N/N=C/CCc1ccccc1,-9.6%
Cc1ccc2cc(CN(Cc3nnnn3C3CCCCC3)CC3CCCO3)c(=O)[nH]c2c1 (configuration not stated),5.3%
Cc1cccc(C)c1NC(=O)CN1CCN(CCCC(c2ccc(F)cc2)c2ccc(F)cc2)CC1,-7.7%&-3.3%
CCCn1c2c(c(O)c(C(=O)Nc3ncccc3O)c1=O)CCCC2,-3.4%
CC(NC(N)=O)C(=O)Nc1ccc(Cl)c(S(=O)(=O)Nc2ccc(Cl)cc2)c1 (configuration not stated),-2.4%
CCc1ccc(CN(C)C(C)C(=O)NCc2ccccc2)cc1 (configuration not stated),-10.1%
CCOc1ccc(NC(=O)C(=O)NCCc2csc(-c3ccc(C)cc3)n2)cc1,-9.7%
Cn1nnnc1Sc1ncnc2scc(-c3ccc4c(c3)OCO4)c12,8.7%
CCN(CC)CCNc1c2c(c(C#N)c3nc4ccccc4n13)CCCC2,6.0%
COc1ccc2[nH]c(=O)c(CN(CCc3ccccc3)C(C)=O)cc2c1,-9.1%
CN(CCc1ccccc1)C(=O)c1cccc(NC(=O)Cc2cccc(NC(=O)C3CCCN(S(=O)(=O)c4cccc([N+](=O)[O-])c4)C3)c2)c1 (configuration not stated),-27.8%
Cc1ccc(S(=O)(=O)N2CCC(C(=O)OCC(=O)N(CCC#N)c3ccc(F)cc3)CC2)cc1C,-8.5%
CC1CN(C(=O)c2ccc(OC3CCN(Cc4ccccn4)CC3)cc2)CCN1C (configuration not stated),u
COC(=O)c1ccc(Oc2coc3cc(OCc4cnn(-c5ccccc5)c4)ccc3c2=O)cc1,1.8%
Cc1ccccc1Nc1c(-c2ccncc2)nc2ccc(Br)cn12,-4.8%
CCOC(=O)c1cc(S(=O)(=O)N2CCCC2)cn1C,-23.8%
Cc1cc(NC(=O)CSc2nc3ccccc3c(=O)n2-c2ccccc2)no1,-4.3%
Cc1cccc(OCCC(=O)Nc2cc(S(=O)(=O)N3CCCCC3)ccc2N2CCOCC2)c1,22.7%
COC(=O)C1=C(C)NC(=O)C1(NS(=O)(=O)c1ccc(C)cc1)C(F)(F)F (configuration not stated),14.1%
O=C(NCC(c1ccco1)N1CCN(c2ccccc2F)CC1)C1CCCCC1 (configuration not stated),-0.7%
CCC(C)N(C(=O)CSc1nnc(-c2cccs2)n1C1CC1)C1CCS(=O)(=O)C1 (configuration not stated),-2.6%
O=C(Cn1cc(C(=O)c2ccco2)c2ccccc21)NC1CCCC1,1.2%
CCN(CC)CC(=O)Nc1ccc(Oc2ccc(NC(=O)CN(CC)CC)cc2)cc1,-2.9%
CC1=C(C(=O)Nc2ccccc2)C2(CCCCC2)C(C#N)=C(SCC(N)=O)N1,u
CN1C(=O)C2(c3ccccc31)N(c1ccc(Br)cc1)C(=O)CS2(=O)=O (configuration not stated),19.8%
COc1ccc(CNC(=O)CN2C(=O)c3ccccc3C2=O)cc1,-18.2%
Cc1ccc(S(=O)(=O)N(C)/N=C2/C(=O)N(CC(=O)O)c3ccccc32)cc1,-5.7%
CNC(=O)c1cc(C)c(-c2ccccc2)s1,-16.2%
O=C(NCc1cccc(Cl)c1)c1c2c(nc3ccccc13)C(=O)N(C1CCCCC1)C2,7.8%
CC(C)CC(NS(=O)(=O)c1ccc2c(c1)oc(=O)n2C)C(=O)NCCc1ccc(Cl)cc1 (configuration not stated),6.0%
